Vif TR-FRET – inhibitors of Vif binding to APOBEC3G peptide, primary screen, biochemical, TR-FRET, GST-Vif 1-94, biotin-A3G peptide, dose response retest (AID 1117319) | TR-FRET GST-Vif / biotin-A3G peptide binding; higher % means a stronger effect; test concentration not given here; strong numbers were not always called active | one-dose inhibition, %; IC50 in µM for titrated hits | 260,000 compounds, 0.57% hits;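 active = above the screen mean plus three standard deviations and confirmed in dose response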;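 also: Vif residues 1-94 fused to GST binding biotinylated APOBEC3G peptide 110-148; 0% = full assay without inhibitor and 100% = GST in place of GST-Vif; retest series ran down from 100 µM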
HNF4A DNA FP – change in binding of human HNF4 alpha to DNA. P41235. 360,000 compounds, 0.3% hits. HNF4a-FITC DNA binding, fluorescence polarization, 1 h. activity change, % at 10 µM; in the data active = activity change above about 30%, passing the limit was not always enough;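 also: controls were the assay level and a saturating level of protein; the project sought stronger binding though the title names inhibitors; some compounds called inactive have numbers as strong as hits; positive values seem to mean higher polarization but the record does not say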
FGF22 binding – FGF22 (human) thermal shift binding. 340,000 compounds, 1.5% hits. calls only at 9.99 µM. AID 651658. recombinant FGF22 thermal shift, SYPRO orange fluorescence; percent of sucrose octasulfate shift, DMSO zero;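 active = melting point raised past a set limit in the mean and every replicate; three in four hits are not shown here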
Target sequence (Q9HCT0 whole entry, looked up): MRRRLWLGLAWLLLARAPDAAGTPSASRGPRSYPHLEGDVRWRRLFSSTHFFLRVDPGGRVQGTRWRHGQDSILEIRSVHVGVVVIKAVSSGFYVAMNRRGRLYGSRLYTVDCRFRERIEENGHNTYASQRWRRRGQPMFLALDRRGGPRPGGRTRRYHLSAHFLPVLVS
Ecoli rRNA inh – inhibitors of bacterial rRNA selective over humanized ribosomes. E. coli WT GFP vs humanized-ribosome RFP mutants, fluorescence, 24 h; stronger effect = lower value; DMSO median 0, no signal -100. GFP signal change (wild-type ribosome), % (test concentration not listed). 350,000 compounds, 1.6% hits. AID 720706;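 active = significant combined selectivity score with lowered wild-type GFP, culture density cut under 30%, mutant RFP and density less affected; inactive = any of these conditions unmet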; also: one replicate is shown; some compounds called inactive have numbers as strong as hits
ALR inh – inhibitors of human sulfhydryl oxidase ALR; 290,000 compounds, 3.8% hits; purified ALR, DTT oxidation, H2O2 HRP-luminol luminescence; P55789; inhibition, % (test concentration not listed);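 active = mean and each replicate at 75% or more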;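 also: stock transfer was 7.5 nL into about 7.5 µL; 0% = neutral wells and 100% = wells with inactivated enzyme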
Target sequence (P55789 whole entry, looked up): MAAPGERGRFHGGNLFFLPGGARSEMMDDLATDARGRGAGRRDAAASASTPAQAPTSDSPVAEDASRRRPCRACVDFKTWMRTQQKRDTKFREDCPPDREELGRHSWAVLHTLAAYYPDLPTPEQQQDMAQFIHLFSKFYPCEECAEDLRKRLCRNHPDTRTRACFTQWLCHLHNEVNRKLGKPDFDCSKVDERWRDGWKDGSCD
MLL AF4-AF9 inh – inhibitors of human MLL-AF4/AF9 interaction | AlphaScreen, biotin-AF4 peptide binding to FLAG-AF9 | 350,000 compounds, 0.47% hits | P42568 | inhibition, % at 10 µM;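 active = every replicate reaching a set inhibition limit, whatever the replicate mean, cut at about 25% in these data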;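 also: 0% = plate neutral control median and 100% = total signal loss; the record names both 10 and 1 µM as test concentration; the first replicate is given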
Target sequence (P42568 whole entry, looked up): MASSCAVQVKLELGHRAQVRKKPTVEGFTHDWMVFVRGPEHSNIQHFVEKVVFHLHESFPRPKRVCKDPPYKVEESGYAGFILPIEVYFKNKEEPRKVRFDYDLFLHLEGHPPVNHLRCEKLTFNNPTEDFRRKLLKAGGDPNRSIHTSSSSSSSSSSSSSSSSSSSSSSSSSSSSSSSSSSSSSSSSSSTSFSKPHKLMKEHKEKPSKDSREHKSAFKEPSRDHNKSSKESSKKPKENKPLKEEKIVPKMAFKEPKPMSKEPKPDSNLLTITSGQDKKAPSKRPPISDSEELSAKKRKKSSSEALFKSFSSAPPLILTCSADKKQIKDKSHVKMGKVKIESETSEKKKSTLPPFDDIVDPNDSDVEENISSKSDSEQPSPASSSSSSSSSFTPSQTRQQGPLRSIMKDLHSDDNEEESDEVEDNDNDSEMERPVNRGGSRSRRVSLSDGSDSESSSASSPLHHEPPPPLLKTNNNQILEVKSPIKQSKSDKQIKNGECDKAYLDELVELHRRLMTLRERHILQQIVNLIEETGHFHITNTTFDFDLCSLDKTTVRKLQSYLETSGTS
Ecoli growth – inhibitors of Escherichia coli growth; OD600, 23 h; stronger effect = lower value; OD600 absorbance (no concentration beside the values); 330,000 compounds, 0.21% hits; AID 1053175;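 active = OD600 absorbance below the run mean of sample wells minus 3.6 SD, in any replicate, cut at about 0.56 in these data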;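 also: stock transfer was 300 nL into about 60 µL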
Ecoli rRNA inh OD600 – also measured in Ecoli rRNA inh; calls as there; OD600 change, %; measured here: OD600 growth;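 optical density of the mix in the first replicate; 0 = DMSO median and -100 = no signal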
Ecoli rRNA inh RFP – second read-out of Ecoli rRNA inh, no call of its own (marks repeat the call); RFP signal change, %; measured here: RFP humanized mutant strains;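 first replicate; 0 = DMSO median and -100 = no signal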
Starred values were filed as active, the others as inactive; i = inactive; · = not tested or not shown. Only part of the results is shown; count on the stated rates, not on these rows.

SMILES	Vif TR-FRET	HNF4A DNA FP	FGF22 binding	Ecoli rRNA inh	Ecoli rRNA inh OD600	Ecoli rRNA inh RFP	ALR inh	MLL AF4-AF9 inh	Ecoli growth
O=c1oc2ccccc2c(O)c1Sc1c(O)c2ccccc2oc1=O	-11%	-3.4	·	·	·	·	·	·	0.71
Cc1nnc(N/N=C/c2cc([N+](=O)[O-])c(N3CCC(C)CC3)cc2N2CCC(C)CC2)n1N	3%	-1.5	·	·	·	·	-25	·	·
COc1ccc2c3c([nH]c2c1)[C@H]1C[C@H]2[C@H](C[C@@H](O)[C@H](OC)[C@H]2C(=O)O)CN1CC3	·	-3.1	i	14	0	12	-7	2.7	·
Cc1cc2nc(-c3ccc(Cl)cc3)c(CC(C)(C)C)n2c(C)c1Br	·	-2.9	i	8	4	4.0	·	2.5	·
CS(=O)(=O)NN1C(=O)c2ccccc2NC1c1cccc2cccnc12 (centres undefined)	·	1.8	i	2	0	-4.1	0	-0.1	0.71
COc1cccc(NC(=O)c2ccc3c(O)c(S(=O)(=O)c4ccccc4)c(=O)[nH]c3c2)c1	·	2.3	·	4	1	2.7	2	-5.3	0.69
CCOC(=O)C1CCCN(C(=O)c2ccc3sccc3c2)CC1 (centres undefined)	·	-3.0	i	·	·	·	·	-1.2	·
COc1ccccc1CN1C[C@@H]2C[C@@H](c3ccccc3C)N3CCC[C@@]23C1=O	·	6.5	i	-16	-17	6.0	-2	4.4	0.69
C[C@H](CO)N1C[C@H](C)[C@@H](CN(C)Cc2ccccc2F)Oc2ncc(C#CCN(C)C)cc2C1=O	·	·	i	5	5	-3.5	·	7.8	·
CC(C)(C)c1ccc(S(=O)(=O)NC(=O)C2(C)CCN2C(=O)CC2CCCC2)cc1 (centres undefined)	·	0.8	i	-12	-20	-2.1	·	1.4	·

3 of the compounds above, as labelled records.
> COc1ccccc1CN1C[C@@H]2C[C@@H](c3ccccc3C)N3CCC[C@@]23C1=O
  Vif TR-FRET: ·	HNF4A DNA FP: 6.5	FGF22 binding: i	Ecoli rRNA inh: -16	Ecoli rRNA inh OD600: -17	Ecoli rRNA inh RFP: 6.0	ALR inh: -2	MLL AF4-AF9 inh: 4.4	Ecoli growth: 0.69

> C[C@H](CO)N1C[C@H](C)[C@@H](CN(C)Cc2ccccc2F)Oc2ncc(C#CCN(C)C)cc2C1=O
  Vif TR-FRET: ·	HNF4A DNA FP: ·	FGF22 binding: i	Ecoli rRNA inh: 5	Ecoli rRNA inh OD600: 5	Ecoli rRNA inh RFP: -3.5	ALR inh: ·	MLL AF4-AF9 inh: 7.8	Ecoli growth: ·

> CC(C)(C)c1ccc(S(=O)(=O)NC(=O)C2(C)CCN2C(=O)CC2CCCC2)cc1 (centres undefined)
  Vif TR-FRET: ·	HNF4A DNA FP: 0.8	FGF22 binding: i	Ecoli rRNA inh: -12	Ecoli rRNA inh OD600: -20	Ecoli rRNA inh RFP: -2.1	ALR inh: ·	MLL AF4-AF9 inh: 1.4	Ecoli growth: ·

(further entries)
SMILES	Vif TR-FRET	HNF4A DNA FP	FGF22 binding	Ecoli rRNA inh	Ecoli rRNA inh OD600	Ecoli rRNA inh RFP	ALR inh	MLL AF4-AF9 inh	Ecoli growth
OCC1(CCc2ccccc2)CCCN(C/C=C/c2ccccc2)C1 (centres undefined)	·	1.0	i	-8	-8	0.5	·	2.5	0.68
COc1ccc(CN2C(=O)C(CC(=O)NCCN3CCOCC3)CC(C(=O)N3CCOCC3)=C2C)cc1 (centres undefined)	-2%	-1.1	i	6	-13	-1.9	·	0.5	·
COc1ccccc1-c1ccccc1[C@H]1[C@@H](CO)N(C(=O)C2CC2)[C@H]1C#N	·	·	i	1	14	-7.8	·	-0.4	·
Cc1csc(SC(C)C(=O)Nc2ccc3c(c2)OCCO3)n1 (centres undefined)	4%	-4.4	i	-14	-16	-1.9	-17	-0.2	0.69
NC(=O)C1CCN(c2nc(-c3ccc4c(c3)OCCO4)cs2)CC1	·	·	i	8	9	1.7	98*	-12	·
COc1ccc(C2=NN(C(C#N)c3ccc(OC)cc3)C(c3ccccc3)C2)cc1 (centres undefined)	·	6.4	i	-32	-43	-20	37	29*	0.68
O=S(=O)(c1ccccc1)N1CCC(c2ccccc2)CC1	·	-2.7	i	-25	-29	-7.1	-5	-7.2	0.73
CCN1CCN(Cc2nc3c(c(=O)n(C)c(=O)n3C)n2CCc2ccccc2)CC1	5%	3.1	i	2	14	-7.1	·	-3.6	0.74
C[C@@H]1CN([C@H](C)CO)C(=O)c2cc(-c3ccccc3F)cnc2O[C@@H]1CN(C)C	·	·	i	10	16	-2.6	·	-10	·
c1cc(-c2ccncc2)ccn1	-1%	-5.4	i	3	6	-2.3	1	-12	0.7
Fc1ccc(NC(=S)Nc2cccc3ccccc23)cc1	·	-7.1	·	16	-13	3.6	-56	3.0	0.66
CO[C@H]1CN(C)C(=O)c2ccc(NC(=O)C3CCC3)cc2OC[C@@H](C)N(Cc2ccc(F)cc2)C[C@@H]1C	·	·	i	4	-18	6.4	·	1.6	·
CON=C(C(=O)NC1C(=O)N2C(C(=O)O)=C(CSc3nc(=O)c(=O)[nH]n3C)CSC12)c1csc(N)n1 (centres undefined)	·	-18	i	·	·	·	·	-9.6	·
C[C@H]1CN([C@@H](C)CO)C(=O)c2cc(C3=CCCCC3)cnc2O[C@H]1CN(C)C(=O)Nc1cccc(F)c1	·	·	i	0	-24	15	·	2.5	·
CC(C)NC(=O)N(C)C[C@H]1OCCCC[C@@H](C)Oc2ccc(NS(C)(=O)=O)cc2C(=O)N([C@H](C)CO)C[C@@H]1C	·	·	i	0	7	-2.7	·	-1.4	·
C[C@@H]1CCCCO[C@H](CN(C)C(=O)Nc2ccc(C(F)(F)F)cc2)[C@@H](C)CN([C@H](C)CO)C(=O)c2cc(NC(=O)Cc3ccccc3)ccc2O1	·	·	i	3	16	-0.1	·	-1.8	·
NC(=O)c1cccc(-c2ccnc3c2CC(C(=O)NCc2cccc(Cl)c2)O3)c1 (centres undefined)	·	2.0	i	-7	-11	0.2	·	1.9	·
CCOc1ccc(NC(=O)C2CC3CCC2C3)cc1 (centres undefined)	·	-6.2	i	-6	-9	1.7	-6	0.2	0.63
O=C(Nc1ccc(S(=O)(=O)NCc2ccccc2)cc1)Nc1ccc2c(c1)OCO2	2%	-0.9	i	-4	21	5.2	·	-0.3	0.73
O=C(OCc1ccccc1)N1CCCC2CC1c1ccccc12 (centres undefined)	0%	-1.4	i	·	·	·	·	-4.8	·
Cc1ccc(S(=O)(=O)N2[C@@H](Cc3ccccc3)CO[C@H]2CC(=O)OCc2ccccc2)cc1	·	-2.3	i	7	14	-1.4	·	0.0	·
O=C(CCN1C(=O)/C(=C/c2ccccc2Cl)SC1=S)NCCCN1CCOCC1	·	6.2	i	-7	-16	0.8	-10	1.7	0.66
CC(=O)Nc1ccc(S(=O)(=O)N2CCN(C)CC2)cc1	0%	-1.3	·	·	·	·	-5	·	0.7
COCCCN(C(=O)c1cc(C)oc1C)c1c(N)n(CC(C)C)c(=O)[nH]c1=O	-3%	6.4	i	6	13	-1.6	-4	-2.1	0.7
CC(C)CC#Cc1cnc2c(c1)C(=O)N([C@@H](C)CO)C[C@@H](C)[C@@H](CN(C)C(=O)c1ccccc1F)O2	·	·	i	-1	-5	-2.7	·	-4.6	·
Cc1ccc(NC(=S)N(CCC(C)C)C(C)c2ccncc2)c(Cl)c1 (centres undefined)	-5%	-2.0	i	7	2	-6.0	-5	-5.2	0.63
Cc1cc(NC(=O)CN2CCC(n3nnc4cc(C(F)(F)F)ccc43)CC2)no1	3%	1.4	i	2	1	-1.5	2	-3.8	0.69
Cc1ccc(Nc2ccc(C(=O)O)cc2[N+](=O)[O-])cc1	·	2.5	i	-5	-10	1.5	-4	-1.7	0.66
O=C(Nc1ccccn1)C(=O)N1CCCCC1	3%	2.9	·	·	·	·	-1	·	0.69
CCN(CC(=O)NCc1cccs1)c1ccc(S(=O)(=O)N2CCN(C)CC2)cn1	-2%	2.2	i	7	4	-1.0	-5	-1.6	0.74
CS(=O)(=O)Nc1ccc(C(=O)Nc2ccc3ccccc3c2)cc1	-7%	-1.7	i	-9	-3	0.4	·	-3.7	0.65
CCCNC(=O)Nc1ccc2c(c1)C(=O)N(C)C[C@H](OC)[C@@H](C)CN(C(=O)C1CCC1)[C@H](C)CO2	·	·	i	5	1	-0.5	·	-0.8	·
Cc1ccc(C)c(NC(=O)C2(C)CCN2C(=O)C(C)C)c1 (centres undefined)	·	-3.2	i	5	3	0.1	·	-3.0	·
O=C(Nc1ccc(Br)cc1C(=O)O)c1ccc2c(c1)C(=O)N(Cc1ccccc1)C2=O	·	-4.5	i	-16	-6	-1.9	·	-3.9	·
COc1ccc(OC)c(CCNC(=O)c2ccccc2NC(=O)C2=C(C)OCCS2)c1	-4%	11	i	-1	2	-3.9	-9	8.5	0.68
Cc1cc(Cl)ccc1OCCCC(=O)N1CCN(C)CC1	-3%	-0.9	·	·	·	·	-2	·	0.68
CC(C)NC(=O)N(C)C[C@@H]1OCc2ccccc2-c2ccccc2C(=O)N([C@@H](C)CO)C[C@H]1C	·	·	i	1	13	-4.5	·	-3.0	·
O=C1COc2ccc(C(=O)COC(=O)c3ccc(Cl)cc3[N+](=O)[O-])cc2N1	5%	1.1	i	3	-2	0.6	·	3.6	0.64

Compound profiles, from the list above:
COc1ccc(OC)c(CCNC(=O)c2ccccc2NC(=O)C2=C(C)OCCS2)c1 in the list: Vif TR-FRET = -4%; HNF4A DNA FP = 11; FGF22 binding = i; Ecoli rRNA inh = -1; Ecoli rRNA inh OD600 = 2; Ecoli rRNA inh RFP = -3.9; ALR inh = -9; MLL AF4-AF9 inh = 8.5; Ecoli growth = 0.68
CC(C)NC(=O)N(C)C[C@@H]1OCc2ccccc2-c2ccccc2C(=O)N([C@@H](C)CO)C[C@H]1C in the list: Vif TR-FRET = ·; HNF4A DNA FP = ·; FGF22 binding = i; Ecoli rRNA inh = 1; Ecoli rRNA inh OD600 = 13; Ecoli rRNA inh RFP = -4.5; ALR inh = ·; MLL AF4-AF9 inh = -3.0; Ecoli growth = ·

Bioassay records: PubChem, several laboratories
